Insulin prom inh – TRM-6 insulin promoter activity inhibition | TRM-6 cells (human fetal islet line), insulin promoter-eGFP reporter, imaging; reporter expression induced with tamoxifen | inhibition, % at 2 µM | hit rate 0.9% among 130,000;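 active = inhibition above the mean plus 3 SD, with well images judged a real hit on visual review, cut at about 60% in these data, passing the limit was not always enough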
PKD1 kinase inh – blocks activity of human protein kinase D1; PKD1 kinase fluorescence polarization assay; inhibition, %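 (about 10 µM by stock and volumes)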; hit rate 0.056% among 200,000; Q15139; AID 797;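 active = inhibition of 50% or more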;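 note: controls were vehicle for no effect and a reference inhibitor for full effect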
RGS16-Gao HTS – regulators of human RGS16-Galphao interaction; binding response (% of control), % at 10 µM; hit rate 0.38% among 220,000; bead-based flow cytometry RGS16-Galphao binding, fluorescence; actives lie on both sides;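 active = below 25% or above 175%, edge rows of some plates excepted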;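 note: Galphao activated by GDP with aluminum fluoride before binding; 100% = wells without compound and 0% = beads without RGS; some results beyond the cut were filed as inactive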
Target sequence (O15492 whole entry, looked up): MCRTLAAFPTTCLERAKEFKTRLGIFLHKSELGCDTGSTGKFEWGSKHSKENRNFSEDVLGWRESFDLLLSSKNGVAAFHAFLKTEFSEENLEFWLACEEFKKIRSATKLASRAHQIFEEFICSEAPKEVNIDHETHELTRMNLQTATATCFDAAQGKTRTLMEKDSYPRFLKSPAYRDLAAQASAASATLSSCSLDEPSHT
Target sequence (P09471 whole entry, looked up): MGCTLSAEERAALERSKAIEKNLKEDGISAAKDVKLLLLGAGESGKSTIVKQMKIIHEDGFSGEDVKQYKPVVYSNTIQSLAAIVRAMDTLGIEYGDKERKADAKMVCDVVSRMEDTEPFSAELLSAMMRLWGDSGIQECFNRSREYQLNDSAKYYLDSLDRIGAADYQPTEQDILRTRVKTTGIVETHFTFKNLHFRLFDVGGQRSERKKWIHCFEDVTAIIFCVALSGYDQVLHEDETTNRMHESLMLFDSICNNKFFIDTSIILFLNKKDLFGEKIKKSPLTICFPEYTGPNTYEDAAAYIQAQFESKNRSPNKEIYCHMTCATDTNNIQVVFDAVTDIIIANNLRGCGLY
GALR2 agonist – activates the human galanin receptor 2; O43603; GALR2-expressing cells, agonist activation read-out; activation, %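 (tested at 5 µM)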; hit rate 0.48% among 140,000;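 active = above mean plus 3 SD of all compounds, about 5% in these data, not always enough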;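 note: 0% = vehicle buffer wells and 100% = reference agonist at full effect; tested in CHO reporter cells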
Target sequence (O43603 whole entry, looked up): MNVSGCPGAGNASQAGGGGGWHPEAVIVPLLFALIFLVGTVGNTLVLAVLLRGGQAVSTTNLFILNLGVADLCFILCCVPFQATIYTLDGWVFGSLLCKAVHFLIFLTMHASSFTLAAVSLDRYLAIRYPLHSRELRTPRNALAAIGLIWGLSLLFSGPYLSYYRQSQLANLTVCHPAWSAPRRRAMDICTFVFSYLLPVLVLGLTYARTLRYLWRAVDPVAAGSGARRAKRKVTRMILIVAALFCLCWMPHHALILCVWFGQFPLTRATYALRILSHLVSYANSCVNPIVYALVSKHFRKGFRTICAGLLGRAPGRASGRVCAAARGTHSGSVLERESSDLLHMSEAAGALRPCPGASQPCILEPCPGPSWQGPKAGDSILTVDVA
HSV replic up – increases HSV replication in cells. HSV replication augmentation in cells, fold increase. maximum fold increase. hit rate 0.005% among 220,000;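 active = peak rise of 1.5-fold or more in the series; tested in PC3 cells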;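 note: first round at 10 µM; read as green reporter fluorescence; hits show the peak of a series up to 25 µM; 1 = signal of infected wells without compound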
Insulin prom inh cell count – further read-out of Insulin prom inh, marked with its call; normalized cell count, %; measured here: cell count, toxicity; reference of the scale not given here;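 cells exposed to compound for 48 h; stained nuclei by imaging scaled within each plate; lower means fewer cells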
HSV replic up primary fold – also measured in HSV replic up; calls as there; fold increase; compound at 10 µM; measured here: primary screen fold increase 10 uM; tested in PC3 cells;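 GFP signal in the first replicate; 1 = infected wells without compound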
The depositor's hits bear a star; i = inactive; nt = not tested or not shown. Rows are unselected; 1.3% or so of the library scored in one or more.

SMILES | Insulin prom inh | Insulin prom inh cell count | PKD1 kinase inh | RGS16-Gao HTS | GALR2 agonist | HSV replic up | HSV replic up primary fold
COc1ccc(S(=O)(=O)N2CCOC2CNC(=O)C(=O)NCCc2ccc(OC)c(OC)c2)cc1 (stereo not given) | 19 | 74 | 14 | 77 | -2.4 | i | 0.9
O=C(NCCO)/C(=C\c1ccco1)NC(=O)c1cccs1 | -10 | 52 | -1 | 99 | nt | i | 0.72
COc1ccc(NC(=O)c2oc3ccccc3c2NC(=O)c2ccco2)cc1 | 30 | 111 | -10 | 100 | -1.6 | i | 0.81
O=C(NCCNc1ccc([N+](=O)[O-])cc1C(F)(F)F)c1cccc(F)c1 | nt | nt | 10 | 93 | -0.6 | i | 0.92
CC(C)NS(=O)(=O)c1ccc(CCC(=O)NCc2ccc3c(c2)OCO3)cc1 | -75 | 89 | 4 | 103 | -1.6 | i | 0.88
Cc1ccc(S(=O)(=O)NCc2ccc3c(c2)cc(C)n3C)cc1 | nt | nt | 0 | 102 | -4.5 | i | 0.91
Cc1nnc(SCC(=O)N2CC(=O)Nc3ccccc32)n1Cc1ccccc1 | 11 | 68 | 6 | 105 | -1.7 | i | 1
CCOc1cc(C(=O)Nc2cnccn2)cc(OCC)c1OCC | 25 | 125 | 0 | 99 | -1.9 | i | 0.82
CC1=NN=C(c2ccccc2)C(c2c[nH]c3ccccc23)N1O (stereo not given) | 31 | 102 | -7 | 105 | -0.9 | i | 1.1
COC(=O)C1CCN(C(=O)CN2C(=O)NC(CCc3ccccc3)C2=O)CC1 (stereo not given) | -8 | 155 | 1 | 101 | 0.2 | i | 0.8
COc1ccc(C[C@@H]2CN3C(=NC[C@@H]3C)N2C[C@H](C)NC(=O)c2ccc(C)c(Br)c2)cc1 | nt | nt | -12 | 101 | nt | i | 0.71
O=S(=O)(c1ccc(Cl)c(NC(=S)Nc2ccccc2N2CCOCC2)c1)N1CCOCC1 | -50 | 103 | -3 | 110 | -0.5 | i | 0.93
O=C(N/N=C/c1cccc(O)c1)c1ccc(COc2ccc3c(c2)CCC3)o1 | -7 | 88 | 11 | 106 | -1.1 | i | 0.87
N#Cc1cc2c(=O)n3ccccc3nc2n(CCCN2CCOCC2)c1=O | 16 | 125 | -3 | 97 | 8.6* | i | 0.83
COc1ccccc1OCC(=O)Nn1c(=S)[nH]c2ncccc2c1=O | nt | nt | 9 | 109 | 0.2 | i | 1
O=C(COC(=O)C12CC3CC(CC(O)(C3)C1)C2)N1CCN(S(=O)(=O)c2ccc(Cl)cc2)CC1 | -65 | 83 | -9 | 107 | -3.6 | i | 0.98
Cc1ccc(NC(=O)NC(=O)N(c2ccccc2)S(C)(=O)=O)cc1 | nt | nt | 8 | 104 | 0.2 | i | 0.87
COc1ccc(-c2nn(-c3ccccc3)cc2/C=N/NC(=O)c2ccc3c(c2)OCO3)cc1 | nt | nt | 1 | 95 | -1.8 | nt | nt
CCOC(=O)c1c(C)n(C)c2ccc(OCC(O)Cn3nc(C)cc3C)cc12 (stereo not given) | 24 | 74 | -8 | 100 | -0.4 | i | 0.86
C/C(=N/NS(=O)(=O)c1ccc(C)cc1)c1cccc(NC(=O)c2cccc(Cl)c2)c1 | nt | nt | -8 | 96 | -1.9 | i | 1.1
COC(=O)CC1=C(C(=O)OC)C(c2cc(OC)c(OC)cc2OC)C(C#N)=C(N)O1 (stereo not given) | -31 | 130 | -10 | 104 | -1.6 | i | 1.1
O=C(NCCCN1CCC(Cc2ccccc2)CC1)C1CC(=O)N(C2CCCC2)C1 (stereo not given) | nt | nt | -14 | 101 | -2.7 | i | 1
O=C(Nc1ccc(Cl)cc1)c1ccc2c(c1)OCO2 | i | 135 | 2 | 102 | -0.2 | i | 0.96
CCc1cc2c3c(c1)C(C)CC(C)(C)N3C(=O)C2=O (stereo not given) | 13 | 80 | -2 | 102 | 0.5 | i | 0.92
Cc1ccccc1OCCNc1cc(N2CCNCC2)ccc1[N+](=O)[O-] | 5 | 135 | 10 | 101 | nt | i | 0.53
CCN1CCN(c2nc(-c3cccs3)nc3ccccc23)CC1 | nt | nt | 0 | 103 | 0.7 | i | 0.87
CCn1c(SCc2nc3ccccc3nc2C)nnc1-c1cccs1 | nt | nt | -7 | 109 | -0.2 | i | 0.97
CSc1nc(Cl)c(Cc2ccc(OC(C)C)cc2)c(N2CCOCC2)n1 | nt | nt | -8 | 103 | -1.8 | i | 0.94
CCCc1[nH]nc2c1C(c1ccc(OC(=O)N3CCOCC3)c(OC)c1)C(C#N)=C(N)O2 (stereo not given) | -100 | 185 | 0 | 104 | 0.3 | i | 1.1
CNC(=S)Nc1ccc(C23CC4CC(CC(C4)C2)C3)cc1 | nt | nt | 0 | 100 | -2.8 | i | 0.88
Cc1ccc(C(=O)/C=C/c2ccco2)c(O)c1 | 17 | 124 | -10 | 95 | -0.9 | i | 1
Cn1c(C2=C(O)CN(Cc3ccccc3)C2=N)nc2ccccc21 | nt | nt | nt | 103 | nt | i | 1
CC(C)CN(CC(C)C)CC(O)COc1ccccc1Br (stereo not given) | -33 | 111 | 7 | 107 | 2.5 | i | 1
Cc1ccc(OCC(=O)NC(=S)Nc2ccc(Br)c(C)n2)cc1 | -77 | 121 | -11 | 104 | -4.0 | i | 0.88
COc1cccc(CNC(=O)CCC2CCCN(C(=O)C3=CC(=O)CC(C)(C)O3)C2)c1 (stereo not given) | nt | nt | -7 | 103 | nt | i | 1.4
CCc1nnc(NC(=O)CCC(=O)N2CCN(CCOc3ccc(C)cc3)CC2)s1 | 13 | 134 | -15 | 208 | -1.1 | i | 0.94
CCOP(=O)(OCC)/C(C#N)=C/c1ccc([N+](=O)[O-])cc1 | nt | nt | nt | 92 | nt | i | 0.86
CC(=O)c1ccc(N2CCC(c3cc(-c4ccc(Cl)cc4Cl)n[nH]3)CC2)c([N+](=O)[O-])c1 | -22 | 102 | -1 | 79 | -4.4 | i | 0.9
COc1ccc(CSc2nc3ccccc3c(=O)n2CCCN2CCOCC2)cc1F | nt | nt | -6 | 101 | nt | i | 0.93
Cn1cnnc1SCC(=O)Nc1sccc1C#N | 41 | 111 | -2 | 104 | -2.1 | i | 0.91
O=C(CCCCn1c(=O)[nH]c2ccccc2c1=O)N1CCN(c2ncccn2)CC1 | 55 | 109 | 3 | 109 | 0.6 | nt | nt
CC(=O)c1c(C)[nH]c(C(=O)Nc2nc(-c3ccc(-c4ccccc4)cc3)cs2)c1C | 11 | 90 | -12 | 97 | -0.7 | i | 0.71
COC(=O)C1=C2SCC(=O)N2C(N)=C(C#N)C1 | nt | nt | nt | 98 | nt | i | 1
COc1cc2c(cc1OC)CN(C1CC(=O)N(c3c(C)cccc3C)C1=O)CC2 (stereo not given) | nt | nt | -5 | 100 | nt | i | 1
Cc1c(NC(=O)COc2ncnc3c(Cl)cc(Cl)cc23)c(=O)n(-c2ccccc2)n1C | nt | nt | -1 | 94 | -2.3 | i | 1.2
CC1=C(C(=O)OCc2ccccc2)C(c2ccccn2)c2c(n(C)c(=O)n(C)c2=O)N1 (stereo not given) | 0 | 56 | 0 | 111 | -2.3 | i | 1
CCOC(=O)/C(C#N)=C/Nc1ccccc1OC(F)(F)F | nt | nt | nt | 91 | nt | i | 1.2
Cc1nc2sc(-c3ccccc3)cc2c(=O)n1-n1cccc1 | 3 | 156 | -6 | 142 | -0.4 | i | 0.88
CCOC(=O)c1ccccc1NC(=O)CN(c1ccccc1)S(=O)(=O)N(C)C | -62 | 125 | -14 | 102 | -2.0 | i | 0.92
Cc1sc(NC(=O)Cc2ccc3c(c2)OCO3)nc1-c1ccc2c(c1)CCN2C(=O)c1cccc(F)c1 | 14 | 119 | 3 | 98 | -1.4 | i | 0.84
Next part
SMILES | Insulin prom inh | Insulin prom inh cell count | PKD1 kinase inh | RGS16-Gao HTS | GALR2 agonist | HSV replic up | HSV replic up primary fold
CCc1ccc(S(=O)(=O)NCCc2cn3ccc(C)cc3n2)s1 | -95 | 44 | -4 | 310 | nt | i | 0.94
CC(C)(C)c1ccc(NC(=O)CC2(C(F)(F)F)OCCO2)cc1 | nt | nt | -4 | 100 | -0.1 | i | 0.76
COC(=O)CN(c1cc(Cl)ccc1OC)S(=O)(=O)c1ccc(OC)c(OC)c1 | nt | nt | 1 | 103 | 0.3 | i | 0.93
COC(=O)c1cc(C(=O)c2cccc(Cl)c2Cl)cn1C | 7 | 88 | 5 | 110 | -1.6 | i | 0.75
O=C1CN(C(=O)CNCc2ccccc2)c2ccccc2N1 | nt | nt | nt | 101 | nt | i | 0.67
O=C(CC(Nc1ccc(Cl)cc1Cl)C(=O)O)c1ccccc1 (stereo not given) | nt | nt | nt | 102 | nt | i | 1
CCn1nc(C)c(/C=N\NC(=O)c2cccc(OC)c2)c1C | 29 | 124 | -7 | 119 | -1.1 | i | 0.87
CCN(CC)c1ccc(C2NC(=O)NC(C)=C2C(=O)Nc2ccccc2)cc1 (stereo not given) | -109 | 97 | -3 | 110 | -1.7 | i | 1.1
Cc1cc(C)n(CC(=O)N/N=C/c2ccccn2)n1 | -45 | 47 | 3 | 94 | -1.7 | i | 0.93
O=C(O)C1C2C=CC3(CN(C/C=C/c4ccccc4)C(=O)C13)O2 (stereo not given) | nt | nt | 3 | 105 | -2.5 | i | 0.82
Cn1c(=O)c2c(nc(Br)n2CC(=O)c2cccs2)n(C)c1=O | -70 | 111 | 1 | 113 | -0.9 | i | 0.87
CCn1c(=O)c(=O)n(CC)c2cc(S(=O)(=O)Nc3ccc(C)cc3)ccc21 | nt | nt | nt | 102 | nt | i | 1
CCOc1cc(C(=S)N2CCCCC2)ccc1OS(=O)(=O)c1ccc(Br)cc1 | -34 | 97 | -4 | 106 | 3.1 | i | 1.1
O=S(=O)(c1ccccc1)N1CCC(N2CCCCCC2)CC1 | nt | nt | -8 | 99 | -0.7 | i | 0.8
O=C(CSc1n[nH]c(=O)[nH]c1=O)N1CCCCCC1 | nt | nt | nt | 104 | nt | i | 0.9
NC(=S)N/N=C/c1cccc(Br)c1 | nt | nt | 0 | 101 | nt | i | 1
CC(C)N1CC2=C(OC(N)=C(C#N)C2c2cccnc2)/C(=C/c2cccnc2)C1 (stereo not given) | 37 | 105 | 2 | 99 | -2.1 | i | 1.1
N#Cc1nc(-c2ccccc2F)oc1NCc1cccc2c1OCO2 | -143 | 47 | -3 | 104 | -1.4 | i | 0.93
Nc1cc(N)nc(SCc2cc([N+](=O)[O-])cc3c2OCOC3)n1 | nt | nt | nt | 101 | nt | i | 0.95
CC(=O)N1CCN(c2ncnc3sc(-c4ccccc4)cc23)CC1 | -4 | 95 | -1 | 98 | nt | i | 0.98
CC(C)Cc1ccc(/C=C/C(=O)N2CCOCC2)cc1 | 3 | 146 | 7 | 102 | nt | i | 0.92
CC(C)c1cc(-c2cc(-c3ccc(Cl)cc3)on2)nc(NC2CCCC2)n1 | nt | nt | nt | 104 | nt | i | 0.94

11 of the compounds above, in CSV form:
Compound,Insulin prom inh,Insulin prom inh cell count,PKD1 kinase inh,RGS16-Gao HTS,GALR2 agonist,HSV replic up,HSV replic up primary fold
Cc1cc(C)n(CC(=O)N/N=C/c2ccccn2)n1,-45,47,3,94,-1.7,i,0.93
O=C(O)C1C2C=CC3(CN(C/C=C/c4ccccc4)C(=O)C13)O2 (stereo not given),nt,nt,3,105,-2.5,i,0.82
Cn1c(=O)c2c(nc(Br)n2CC(=O)c2cccs2)n(C)c1=O,-70,111,1,113,-0.9,i,0.87
CCn1c(=O)c(=O)n(CC)c2cc(S(=O)(=O)Nc3ccc(C)cc3)ccc21,nt,nt,nt,102,nt,i,1
CCOc1cc(C(=S)N2CCCCC2)ccc1OS(=O)(=O)c1ccc(Br)cc1,-34,97,-4,106,3.1,i,1.1
O=S(=O)(c1ccccc1)N1CCC(N2CCCCCC2)CC1,nt,nt,-8,99,-0.7,i,0.8
O=C(CSc1n[nH]c(=O)[nH]c1=O)N1CCCCCC1,nt,nt,nt,104,nt,i,0.9
NC(=S)N/N=C/c1cccc(Br)c1,nt,nt,0,101,nt,i,1
CC(C)N1CC2=C(OC(N)=C(C#N)C2c2cccnc2)/C(=C/c2cccnc2)C1 (stereo not given),37,105,2,99,-2.1,i,1.1
N#Cc1nc(-c2ccccc2F)oc1NCc1cccc2c1OCO2,-143,47,-3,104,-1.4,i,0.93
Nc1cc(N)nc(SCc2cc([N+](=O)[O-])cc3c2OCOC3)n1,nt,nt,nt,101,nt,i,0.95

Compound activity: PubChem BioAssay, several laboratories
